# Assay outcomes: PubChem BioAssay, several laboratories
# UCH37 inh: blocks the human deubiquitinase UCH37. Q9Y5K5. purified proteasome/UCH37, Ub-AMC cleavage fluorescence. inhibition, % (no concentration beside the values). 0.33% of 330,000 active;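 active = mean of two replicates above 20%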;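 note: 0% = compound-free wells with enzyme and 100% = wells lacking proteasome; stock transfer was 100 nL into about 20 µL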
# Target sequence (Q9Y5K5 whole entry, looked up): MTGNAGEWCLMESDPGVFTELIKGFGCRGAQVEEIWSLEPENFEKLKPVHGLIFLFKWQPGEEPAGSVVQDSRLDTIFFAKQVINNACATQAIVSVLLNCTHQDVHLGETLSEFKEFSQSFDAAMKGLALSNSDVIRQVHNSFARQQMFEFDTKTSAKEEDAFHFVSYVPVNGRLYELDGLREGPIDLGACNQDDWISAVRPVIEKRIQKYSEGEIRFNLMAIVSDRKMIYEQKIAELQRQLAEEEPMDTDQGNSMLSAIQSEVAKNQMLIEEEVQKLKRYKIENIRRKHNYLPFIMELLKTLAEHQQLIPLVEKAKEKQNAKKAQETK
#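 assay system = human UCH37 enzyme supplied as purified proteasome complex | amount = proteasome at 0.15 nM in the dispensed enzyme solution | schedule = 30 min compound-proteasome preincubation then 25 min substrate reaction, room temperature | measured by = fluorescence, ex 355 nm, em 460 nm | benchmarks = no-proteasome wells (full inhibition) and compound-free wells (no inhibition)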
# HNF4A DNA FP: change in binding of human HNF4 alpha to DNA | 0.3% of 360,000 active | AID 1224865 | P41235 | activity change, % at 10 µM | HNF4a-FITC DNA binding, fluorescence polarization, 1 h; in the data active = activity change above about 30%, passing the limit was not always enough;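 note: controls were the assay level and a saturating level of protein; the project sought stronger binding though the title names inhibitors; some compounds called inactive have numbers as strong as hits; positive values seem to mean higher polarization but the record does not say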
# Vif TR-FRET: HIV-1 Vif–A3G interaction blockers – biochemical, TR-FRET, GST-Vif 1-94, biotin-A3G peptide, dose response retest, primary screen (AID 1117319). inhibition, %; hits with a dose series show IC50 in µM. 0.57% of 260,000 active. TR-FRET GST-Vif / biotin-A3G peptide binding; higher % means a stronger effect; test concentration not given here; strong numbers were not always called active;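 active = above the screen mean plus three standard deviations and confirmed in dose response; inconclusive = results disagree or hit not tested in dose response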;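 note: Vif residues 1-94 fused to GST binding biotinylated APOBEC3G peptide 110-148; 0% = full assay without inhibitor and 100% = GST in place of GST-Vif; retest series ran down from 100 µM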
# Bfl-1 A1 inh: inhibitors of the anti-apoptotic protein A1, read as caspase activation. MEF A1-2A-BIM cells, Caspase-Glo 3/7 luminescence, 3 h; percent of clofoctol response, vehicle zero. caspase activation, % (test concentration not listed). 0.066% of 330,000 active;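 active = over half of replicate activation scores above 10%, or exactly half above 10 with the replicate mean above 10; inconclusive = replicate mean below 10 yet half the replicates above 10; inactive = over half of replicates below 10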;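 note: wells of about 30 µL received 50 nL stock; many hits fall short of the cut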
# Ecoli growth: E. coli growth inhibition; Escherichia coli growth, OD600, 23 h; stronger effect = lower value; OD600 absorbance (concentration not given with the values); 0.21% of 330,000 active; AID 1053175;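 active = OD600 absorbance below the run mean of sample wells minus 3.6 SD, in any replicate, cut at about 0.56 in these data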;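 note: stock transfer was 300 nL into about 60 µL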
# LANA-H2A inh: blocks KSHV LANA binding to histone H2A/H2B | Q9QR71 | cell-free LANA-H2A/H2B peptide, fluorescence polarization | inhibition, % (concentration not given with the values) | 0.6% of 320,000 active | AID 2629; in the data active = inhibition mostly above about 10%, no sharp cut-off; inactive = mostly below about 6.7%;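 note: stock transfer was 7.5 nL into about 10 µL; 0% = median of vehicle wells and 100% = median of positive control wells; one replicate is shown; the record names a cut of 25% in any replicate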
# B2AR ag: activates human beta-2 adrenergic receptor causing internalization; P07550; Am2.2-beta2AR cells, FAP receptor internalization, flow cytometry; reference of the scale not given here; response, % (no concentration beside the values); 0.43% of 340,000 active;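 active = response above a set limit, near 3 SD of response in nonfluorescent compounds, cut at about 42% in these data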;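 note: stock transfer was 100 nL into about 11 µL; a reference agonist was the positive control; negative values mostly stem from fluorescent compounds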
# Target sequence (P07550 whole entry, looked up): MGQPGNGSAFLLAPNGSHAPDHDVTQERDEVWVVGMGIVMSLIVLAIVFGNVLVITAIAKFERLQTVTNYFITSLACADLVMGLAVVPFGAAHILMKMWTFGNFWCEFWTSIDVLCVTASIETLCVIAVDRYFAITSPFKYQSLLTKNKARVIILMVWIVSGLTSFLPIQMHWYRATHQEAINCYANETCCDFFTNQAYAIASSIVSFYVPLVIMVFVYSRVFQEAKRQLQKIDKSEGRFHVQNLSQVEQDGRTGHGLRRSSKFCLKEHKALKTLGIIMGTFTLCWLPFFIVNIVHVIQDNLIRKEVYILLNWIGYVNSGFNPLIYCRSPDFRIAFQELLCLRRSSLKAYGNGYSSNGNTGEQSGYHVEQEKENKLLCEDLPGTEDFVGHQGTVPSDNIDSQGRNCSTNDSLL
# Numbers without * were called inactive; ? = inconclusive; . = no result given.
SMILES,UCH37 inh,HNF4A DNA FP,Vif TR-FRET,Bfl-1 A1 inh,Ecoli growth,LANA-H2A inh,B2AR ag
CSCCC(NS(=O)(=O)c1ccccc1F)C(=O)N1CCCCCC1 (stereo unspecified),0.9,1.1,-5%,0.3,0.61,-1.8,-3
CCc1nc2sc(C)c(C)c2c(=O)n1CCO,1.5,0.4,3%,0.5,0.63,-3.1,4
Cc1cc(C)c2c(=N)c3ccccc3n(CCCCCCCCn3c4ccccc4c(=N)c4c(C)cc(C)nc43)c2n1,.,77,1.5µM*,.,.,.,63*
CNC(=O)c1ccccc1NC(=O)c1ccc(C)c(S(=O)(=O)N2CCCCC2)c1,3.2,2.4,78%,-0.1,0.73,0.9,0
O=C(CNS(=O)(=O)/C=C/c1ccccc1)OC1CCOC1=O (stereo unspecified),-0.5,-4.0,.,-0.8,0.68,-1.3,0
O=C(NCC1CCCCC1)C1CCC(=O)N(CCc2cccc(F)c2)C1 (stereo unspecified),2.8,1.4,.,0.7,0.68,8.0,-23
N/C(=N\NC(=O)Nc1ccc(Cl)cc1)c1ccccn1,5.0,2.8,.,-0.3,0.66,-13,-1
C=CCN1C(=O)C(CCCC)NC1=S (stereo unspecified),2.0,2.5,-6%,1.0,0.68,3.5,1
CCOC(=O)CC(=O)CSc1nc(-c2ccc3c(c2)OCO3)cc(C(F)(F)F)c1C#N,-114,3.6,-15%,-8.0,0.74,6.8,-85
Cc1ccc(N)cc1CN1CCCC1=O,1.0,0.9,10%,0.7,0.68,-2.4,2
COc1ccc(Cc2noc(CN3CCN(Cc4csc(C)n4)CC3)n2)cc1OC,2.1,0.4,5%,0.9,0.66,3.3,-1
S=c1[nH]c2ccccc2n2c(=S)[nH]nc12,17,-5.1,-182%,-1.4,0.6,-0.6,-1
Clc1ccc(OC2CCN(Cc3nc(CC4CC4)no3)CC2)cc1,4.8,1.8,.,0.8,0.71,1.6,0
O=C(NCCCCc1ccccc1)c1cccc([N+](=O)[O-])c1,1.8,-1.4,-3%,0.8,0.62,1.0,-1
Cc1ccc(S(=O)(=O)N2CCC(=O)N(C(COCc3cccc(C(F)(F)F)c3)C(C)C)CC2)cc1 (stereo unspecified),-0.2,0.2,10%,0.5,0.71,-5.4,6
COc1cc(CNc2ccc3[nH]c(=O)[nH]c3c2)ccc1OCc1ccccc1Cl,-1.9,2.1,1%,-0.5,0.74,4.6,11
O=C(Nc1ccc(Br)cn1)c1cccc(-c2cc3ccccc3oc2=O)c1,-122,-3.9,-1%,-7.1,0.71,-2.5,30
CCN1CC(CN(C)Cc2cn(-c3cccc(C)c3)nc2-c2cccc(F)c2)CC1=O (stereo unspecified),6.3,1.6,?,0.2,0.68,3.1,8
Cn1c(SCc2ccccc2)nnc1-c1ccco1,1.6,2.5,.,-0.4,0.68,3.2,-11
Cc1ccc(NC(=O)CSc2nnc3ccccn23)cc1S(=O)(=O)N1CCOCC1,0.2,3.3,?,1.5,0.7,-5.2,-5
O=C(c1ccc2ccccc2c1)c1c[nH]cc1-c1ccccc1,4.9,0.0,-1%,-0.2,0.73,-1.0,-1
Cc1ccc(S(=O)(=O)N2Cc3ccccc3CC2C(=O)Nc2ccc3c(c2)OCO3)cc1 (stereo unspecified),3.4,-14,3%,0.4,0.75,-1.9,-2
O=C(NCCN1C(=O)C2C3C=CC(C3)C2C1=O)NCc1ccccc1 (stereo unspecified),2.7,-4.6,23%,1.0,0.7,-1.7,4
Cc1ccc(NC(=O)c2cc([N+](=O)[O-])ccc2N2CCCC2)cc1,6.7,-1.0,.,1.5,0.73,2.0,7
Cc1cccc(OCc2nnc(SCC(=O)N3CCCC3)o2)c1,2.3,1.4,2%,-0.5,0.76,-4.9,2
C=CCC1NS(=O)(=O)OCC1NC(=O)OCC(Cl)(Cl)Cl (stereo unspecified),-0.3,0.1,.,-0.3,0.68,-3.8,10
COc1ccc2oc(=O)c(C(=O)C[n+]3cccc(C)c3)cc2c1,-4.1,-5.6,32%,-0.7,0.65,1.9,0
Cc1cc(C)nc(N2CCN(c3ncnc4c3cnn4Cc3ccc(Cl)cc3Cl)CC2)n1,0.3,.,.,-0.5,0.76,2.1,.
COc1cccc(C(=O)N[C@@H](C)C(=O)N2CCC3(CC2)NCCc2[nH]cnc23)c1,-0.1,-3.4,.,0.5,0.65,0.5,13
COCCN1C(=O)c2cc(C(=O)Nc3ccc(C)c(F)c3)ccc2C1Nc1ccc(C)c(F)c1 (stereo unspecified),2.6,-0.3,14%,-0.2,0.71,-0.9,11
O=C(COc1ccc(S(=O)(=O)Nc2ccccc2)cc1)NCc1ccncc1,3.9,-0.7,.,-0.4,0.7,-1.5,-2
O=C(Nc1ccccc1)N1CCC(C(=O)N2CCN(Cc3ccccc3)CC2)CC1,1.4,-2.0,-7%,-1.1,0.62,1.6,9
CCn1cc2nc(SCC(=O)Nc3ccccc3F)n(Cc3ccccc3)c(=O)c2n1,1.8,6.5,.,1.2,0.72,-0.6,-11
NC(=O)c1ccccc1NC(=O)Nc1cccc2ccccc12,-2.6,8.4,?,0.5,0.68,2.4,6
O=C1[C@H]2CCC=C[C@H]2[C@H](c2cccc(Br)c2)N1Cc1ccccc1,4.2,2.5,5%,.,0.7,.,8
CC(C(=O)N1CCCc2ccccc21)N1C(=O)c2ccccc2C1=O (stereo unspecified),1.7,-1.3,-1%,0.2,0.75,1.3,3
CCCCOC(=O)CCN1C(=O)/C(=C2\SC(=S)N(CCC(=O)OCCCC)C2=O)SC1=S,11,1.7,.,1.2,0.68,0.0,17
CCC(C)(C)n1nnnc1C(c1ccc(C)cc1)N1CCC(C)CC1 (stereo unspecified),3.1,1.3,-2%,0.0,0.69,-1.5,-2
Cc1cc(NC(=O)CSc2nc(=O)n3cc(Cl)ccc3n2)no1,1.8,2.2,-8%,0.3,0.62,-6.6,1
C/C(=N\OCC(=O)OCC(=O)NCc1ccccc1)c1ccc2c(c1)OCO2,.,2.2,.,0.1,.,0.7,-2
CC(=O)Nc1cccc(Nc2nc(-c3cccs3)nc3ccccc23)c1,-31,-0.1,.,0.6,0.66,-1.0,16
CCOc1ccccc1NC(=O)CSc1nc(=O)n(CCCN2CCOCC2)c2c1CCCC2,6.3,-0.5,-2%,0.0,0.66,-3.5,3
COc1ccc(NC2=CC(=O)CC(C)(C)C2)cc1OC,5.2,5.4,-1%,1.0,0.66,-2.1,2
CCOC(=O)C1CCN(CC(O)COCc2cccs2)CC1 (stereo unspecified),2.3,4.3,.,-0.5,0.73,-7.6,1
Cc1cc(OC(=O)c2cccc(Cl)c2)c([N+](=O)[O-])c(=O)[nH]1,5.7,-1.1,.,0.5,0.69,6.4,-1

# Four of the entries above in order of the HNF4A DNA FP value, rising.
molecule | UCH37 inh | HNF4A DNA FP | Vif TR-FRET | LANA-H2A inh | B2AR ag
CC(C(=O)N1CCCc2ccccc21)N1C(=O)c2ccccc2C1=O (stereo unspecified) | 1.7 | -1.3 | -1% | 1.3 | 3
O=C(COc1ccc(S(=O)(=O)Nc2ccccc2)cc1)NCc1ccncc1 | 3.9 | -0.7 | . | -1.5 | -2
C/C(=N\OCC(=O)OCC(=O)NCc1ccccc1)c1ccc2c(c1)OCO2 | . | 2.2 | . | 0.7 | -2
O=C1[C@H]2CCC=C[C@H]2[C@H](c2cccc(Br)c2)N1Cc1ccccc1 | 4.2 | 2.5 | 5% | . | 8

# Further compounds follow.
SMILES,UCH37 inh,HNF4A DNA FP,Vif TR-FRET,Bfl-1 A1 inh,Ecoli growth,LANA-H2A inh,B2AR ag
O=C(Nc1ccccc1)c1ccc(Nc2c([N+](=O)[O-])cc([N+](=O)[O-])c3ccccc23)cc1,.,2.3,?,0.4,.,-6.7,15
COc1ccc(S(=O)(=O)NCC2CCCN(C(=O)c3occc3C)C2)cc1 (stereo unspecified),2.6,3.5,0%,1.5,0.67,0.2,11
O=C(Cc1ccccc1[N+](=O)[O-])N1CCc2ccccc2C1,1.5,-0.6,1%,0.4,0.67,-5.5,0
COc1ccc(C(=O)NC2CC3CCCC(C2)N3Cc2ccccc2)cc1OC (stereo unspecified),2.0,3.4,.,-0.9,0.71,-1.4,-1
CC(=O)c1c(OC(=O)c2cccc(Cl)c2)c2ccccc2n1C,.,3.8,.,0.0,.,-0.1,-10
Cc1ccc(-n2ncc3c2CC(C)(C)CC3NC(=O)CCc2c(C)noc2C)cc1 (stereo unspecified),-0.4,-2.8,.,0.5,0.71,-3.0,-3
CCCCn1nc(C(=O)N(C)C2CCCCC2)c2ccccc2c1=O,1.7,0.7,-4%,0.7,0.63,1.2,-3
COc1ccccc1NC(=O)CSc1nnc(C)o1,5.5,2.6,10%,0.3,0.74,-1.7,-4
O=C(c1cccc(NS(=O)(=O)c2cccc([N+](=O)[O-])c2)c1)N1CCOCC1,2.7,-5.3,-4%,0.5,0.7,-3.1,10
O=S(=O)(NCCc1ccncc1)c1ccc(F)cc1,-1.0,3.3,2%,2.2,0.68,-4.2,3
COc1ccccc1CCc1nnc(CCC(=O)NC(C)Cc2ccsc2)o1 (stereo unspecified),3.9,0.5,-6%,-0.4,0.75,-1.8,-11
COCCn1c(=O)[nH]c2cc(C(=O)NCCN3CCN(c4ccccc4)CC3)ccc2c1=O,-3.9,-3.2,-3%,0.3,0.68,-0.5,12
COc1cc(OC)c(NC(=O)c2cc3ccccc3cc2O)cc1Cl,-54,-1.1,0%,.,0.62,.,13
COC(=O)C1=C(C)NC(=O)CC1c1cc2c(cc1Br)OCO2 (stereo unspecified),-4.5,-1.4,-6%,0.4,0.72,3.1,-6
COc1ccc(C2C(CN3CCOCC3)C(=O)N2c2ccccc2)cc1 (stereo unspecified),1.9,-3.4,.,-1.3,0.65,6.1,-8
COCCN(C(=O)COC(=O)Cc1c(C)nc2ccccc2c1C)c1c(N)n(CC(C)C)c(=O)[nH]c1=O,5.0,-0.2,.,0.5,0.69,1.9,4
COC(=O)Cn1c(=O)oc2ccc(C)cc21,-0.5,-0.2,2%,0.2,0.69,0.2,-5
CCOC(=O)c1c(S(=O)(=O)NCc2ccco2)c(C)n(C)c1C,-0.8,4.6,-5%,1.2,0.72,1.2,0
CC(=O)Nc1ccc(S(=O)(=O)NCC2CCC(C(=O)N3CCN(c4ccccn4)CC3)CC2)cc1 (stereo unspecified),-59,0.9,23%,1.2,0.68,2.8,-3
CCOc1ccc(Br)cc1S(=O)(=O)Nc1ccc(C(=O)Nc2ccc(C)cc2)cc1,3.2,-1.0,14%,0.9,0.68,6.1,0
Cc1cc(C)n2c(C)nnc2c1,-1.1,-1.7,17%,.,0.66,.,-4
CCOC(=O)c1ccc(NC(=O)C(=O)NCc2ccco2)cc1,2.0,-0.5,-2%,0.1,0.7,8.7,-5
CCn1nc(C)c(CN2CCN(Cc3ccc(OC)c(C)c3C)C(CCO)C2)c1C (stereo unspecified),3.6,3.6,10%,-0.1,0.69,0.8,-1
CS(=O)(=O)N1CCCC(C(=O)Nc2ccccc2F)C1 (stereo unspecified),-0.8,0.7,.,-0.3,0.65,9.0,-5
CCCC[C@@H]1C[C@H]1[C@@H](NC(=O)c1cccs1)c1ccc(Cl)cc1,4.8,.,17%,1.9,.,-2.5,.
CN(C)c1ccc(/C=N/N(CCC#N)C2=NS(=O)(=O)c3ccccc32)cc1,.,10,2%,0.3,.,-5.1,2
O=C(/C=C/c1ccc(S(=O)(=O)NCc2ccco2)cc1)N1CCN(c2ccccc2)CC1,-0.4,-2.1,-3%,0.5,0.63,1.9,0
Cc1c(N=C2NC(=O)/C(=C/c3cccc([N+](=O)[O-])c3)S2)c(=O)n(-c2ccccc2)n1C,5.1,.,?,0.2,0.74,-2.5,.
